MT1-MMP act inh – blocks activation of human MT1-MMP; HT1080 RFP-PRO-GFP cells, GFP/RFP ratio fluorescence, overnight; percent of plate control window, DMSO zero; 0.061% of 360,000 active; P50281; AID 651647; GFP/RFP ratio change, % at 20 µM;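 active means GFP/RFP ratio change of at least 30% with cell ATP level not reduced by more than half and red fluorescence within 50% of control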; further: strong numbers were not always called active
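Assay system: HT1080 cells carrying an RFP-PRO-GFP reporter | Dosing: Single dose of 20 µM compound, 1% DMSO final | Incubation: Cells overnight before dosing, compound overnight, 37 °C, 5% CO2 | Evaluation: GFP/RFP fluorescence ratio | Control set: DMSO and RFP-L50D-GFP cell wells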
HIV Env fusion – inhibitors of HIV Env-mediated cell fusion | 1.1% of 360,000 active | HeLa-JRFL Env/CEM21 cell fusion, luciferase | inhibition, % at 12.3 µM;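 active means mean replicate inhibition score of at least 50 and every replicate individually at or above 50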;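 further: 0% = plate neutral controls and 100% = maraviroc near 300 nM; one replicate is shown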
UUG fidelity – alters start codon recognition fidelity in yeast; S. cerevisiae UUG-firefly luciferase reporter, luminescence/redox ratio; activity score, % at 18.7 µM; 0.13% of 350,000 active;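 active means replicate mean at a twofold rise or more, about +100% in these data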;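 further: firefly luciferase made from a UUG start codon reports start codon fidelity; reporter light over untreated wells divided by growth signal over untreated wells; some hits fall short of that in this replicate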
MT1-MMP act inh RFP – further read-out of MT1-MMP act inh, marked with its call; RFP signal change, %; measured here: RFP expression control read;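 0 = vehicle wells; hits needed this value within 50% of zero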
* hit, by the source's call; . = no result given; & = joins results of further samples; [ ] = another dose, or the depositor's remark. An excerpt; rates above refer to the full screens.

smiles	MT1-MMP act inh	MT1-MMP act inh RFP	HIV Env fusion	UUG fidelity
C[C@H](CO)N1C[C@H](C)[C@H](CN(C)Cc2ccc3c(c2)OCO3)OCCCC[C@H](C)Oc2ccc(NC(=O)Cc3ccccc3)cc2C1=O	.	.	-34[16.7 µM]	20
C[C@H]1CN([C@@H](C)CO)C(=O)Cc2cc(NC(=O)Nc3ccc(F)cc3)ccc2O[C@H]1CN(C)Cc1ccc(Oc2ccccc2)cc1	.	.	-17[16.7 µM]	19
C[C@H](CO)N1C[C@H](C)[C@H](CN(C)S(=O)(=O)c2ccccc2)OCCCC[C@H](C)Oc2ccc(NS(=O)(=O)c3ccc(Cl)cc3)cc2C1=O	.	.	-24[16.7 µM]	4
C[C@@H]1CCCCO[C@H](CN(C)C)[C@H](C)CN([C@@H](C)CO)C(=O)c2cc(NC(=O)c3ccccc3)ccc2O1	.	.	-1[16.7 µM]	14
COc1ccc(S(=O)(=O)Nc2ccc3c(c2)C(=O)N([C@@H](C)CO)C[C@@H](C)[C@H](CN(C)S(=O)(=O)c2cccs2)OCCCC[C@@H](C)O3)cc1	.	.	1[16.7 µM]	1
COc1ccccc1C#Cc1cnc2c(c1)C(=O)N([C@H](C)CO)C[C@H](C)[C@H](CN(C)C(C)=O)O2	.	.	7[16.7 µM]	-7
C[C@@H]1CN([C@H](C)CO)C(=O)c2cc(NC(=O)NC3CCCCC3)ccc2O[C@@H]1CN(C)Cc1ccccc1	.	.	8[16.7 µM]	13
C[C@@H]1CN([C@@H](C)CO)C(=O)c2cccc(NC(=O)c3ccc(-c4nccs4)cc3)c2O[C@H]1CN(C)S(=O)(=O)c1cccs1	.	.	-132[16.7 µM]	8
O=C(NCC[C@H]1CC[C@H](NC(=O)C2CC2)[C@@H](CO)O1)Nc1ccc(Cl)cc1	.	.	6[16.7 µM]	-6
C[C@@H]1CN([C@H](C)CO)C(=O)Cc2cc(NC(=O)NC3CCCCC3)ccc2O[C@@H]1CN(C)S(=O)(=O)c1cn(C)cn1	.	.	-8[16.7 µM]	-5
C[C@@H]1CN([C@H](C)CO)S(=O)(=O)c2ccc(C#C[C@@H](C)O)cc2O[C@@H]1CN(C)C(=O)Cc1ccccn1	.	.	1[16.7 µM]	1
C[C@H](CO)N1C[C@H](C)[C@@H](CN(C)Cc2ccc(Cl)c(Cl)c2)Oc2ccc(NC(=O)Cc3cn(C)c4ccccc34)cc2C1=O	.	.	-18[16.7 µM]	2
O=C(Nc1ccccc1)Nc1ccc2c(c1)[C@H]1C[C@H](CC(=O)N3CCCCC3)O[C@H](CO)[C@H]1O2	.	.	7[16.7 µM]	10
COc1ccc(S(=O)(=O)Nc2ccc3c(c2)C(=O)N([C@@H](C)CO)C[C@H](C)[C@H](CN(C)S(=O)(=O)c2cn(C)cn2)O3)cc1	.	.	-5[16.7 µM]	-7
C[C@H](CO)N1C[C@H](C)[C@H](CN(C)S(=O)(=O)c2ccc(F)cc2)Oc2ccc(NC(=O)C3CC3)cc2CC1=O	.	.	21[16.7 µM]	-5
Cc1ccc(S(=O)(=O)Nc2ccc3c(c2)C(=O)N([C@H](C)CO)C[C@@H](C)[C@H](CN(C)Cc2ccncc2)OCCCC[C@@H](C)O3)cc1	.	.	-19[16.7 µM]	-15
CCC(=O)N(C)C[C@H]1Oc2ncc(C#CC(C)(C)O)cc2C(=O)N([C@H](C)CO)C[C@H]1C	.	.	14[16.7 µM]	-7
CCc1cnc(N2[C@H](CO)[C@@H](c3ccc(C#Cc4ccccc4F)cc3)[C@@H]2C#N)s1	.	.	44[16.7 µM]	-15
O=C(C[C@@H]1CC[C@H](NC(=O)c2ccc3c(c2)OCO3)[C@@H](CO)O1)NCc1ccc(Cl)cc1	.	.	-9[16.7 µM]	-11
O=C(C[C@@H]1C=C[C@H](NC(=O)Nc2ccc(C(F)(F)F)cc2)[C@H](CO)O1)NCCN1CCCC1	.	.	-13[16.7 µM]	-3
COc1ccccc1-c1ccc([C@@H]2[C@@H](C#N)N(C(=O)c3cccc(F)c3)[C@@H]2CO)cc1	.	.	-17[16.7 µM]	-7
C[C@H](CO)N1C[C@H](C)[C@@H](CN(C)C(=O)NC2CCCCC2)Oc2ncc(/C=C/c3ccccc3)cc2C1=O	.	.	-17[16.7 µM]	3
CO[C@H]1CN(C)C(=O)c2ccc(NC(=O)c3ccc(F)cc3)cc2OC[C@H](C)N(C(=O)c2ccc(F)cc2)C[C@H]1C	.	.	-23[16.7 µM]	9
C[C@@H]1CN([C@@H](C)CO)S(=O)(=O)c2ccc(C#C[C@@H](C)O)cc2O[C@H]1CN(C)C(=O)Nc1ccccc1	.	.	-29[16.7 µM]	17
CCC(=O)Nc1ccc2c(c1)OC[C@H](C)N(C(=O)CN1CCOCC1)C[C@H](C)[C@H](OC)CN(C)C2=O	.	.	1[16.7 µM]	9
C[C@@H]1CN([C@H](C)CO)C(=O)c2cc(NS(=O)(=O)c3ccc(F)cc3)ccc2O[C@@H]1CN(C)C(=O)NC1CCCCC1	.	.	-10[16.7 µM]	8
O=C(C[C@H]1CC[C@@H](NS(=O)(=O)c2ccc(F)cc2)[C@@H](CO)O1)N1CCc2ccccc2C1	.	.	24[16.7 µM]	-17
COc1ccc(S(=O)(=O)Nc2ccc3c(c2)C(=O)N([C@@H](C)CO)C[C@H](C)[C@@H](CN(C)C(=O)CCCN(C)C)OCCCC[C@H](C)O3)cc1	.	.	9[16.7 µM]	15
C/C=C/c1ccc2c(c1)O[C@@H](CN(C)C(=O)CN1CCOCC1)[C@@H](C)CN([C@@H](C)CO)S2(=O)=O	.	.	12[16.7 µM]	4
C[C@@H]1CN([C@@H](C)CO)C(=O)c2cc(C3=CCCCC3)cnc2O[C@@H]1CN(C)Cc1ccccn1	.	.	4[16.7 µM]	-14

Compound profiles, from the list above.
COc1ccc(S(=O)(=O)Nc2ccc3c(c2)C(=O)N([C@@H](C)CO)C[C@H](C)[C@@H](CN(C)C(=O)CCCN(C)C)OCCCC[C@H](C)O3)cc1 is entered as MT1-MMP act inh: .; MT1-MMP act inh RFP: .; HIV Env fusion: 9[16.7 µM]; UUG fidelity: 15
C[C@@H]1CN([C@H](C)CO)C(=O)c2cc(NC(=O)NC3CCCCC3)ccc2O[C@@H]1CN(C)Cc1ccccc1 is entered as MT1-MMP act inh: .; MT1-MMP act inh RFP: .; HIV Env fusion: 8[16.7 µM]; UUG fidelity: 13

Looked up above.
C[C@@H]1CN([C@H](C)CO)C(=O)c2cc(NS(=O)(=O)c3ccc(F)cc3)ccc2O[C@@H]1CN(C)C(=O)NC1CCCCC1 in UUG fidelity has 8
C[C@H](CO)N1C[C@H](C)[C@@H](CN(C)C(=O)NC2CCCCC2)Oc2ncc(/C=C/c3ccccc3)cc2C1=O in UUG fidelity has 3
C[C@H]1CN([C@@H](C)CO)C(=O)Cc2cc(NC(=O)Nc3ccc(F)cc3)ccc2O[C@H]1CN(C)Cc1ccc(Oc2ccccc2)cc1 in UUG fidelity has 19
CO[C@H]1CN(C)C(=O)c2ccc(NC(=O)c3ccc(F)cc3)cc2OC[C@H](C)N(C(=O)c2ccc(F)cc2)C[C@H]1C in HIV Env fusion has -23[16.7 µM]
COc1ccccc1-c1ccc([C@@H]2[C@@H](C#N)N(C(=O)c3cccc(F)c3)[C@@H]2CO)cc1 in UUG fidelity has -7

(next part)
smiles	MT1-MMP act inh	MT1-MMP act inh RFP	HIV Env fusion	UUG fidelity
CCC(=O)N[C@H]1C=C[C@@H](CC(=O)NCCN2CCCCC2)O[C@@H]1CO	.	.	29[16.7 µM]	-13
CN(C)C(=O)C[C@H]1CC[C@H]2[C@@H](COc3ccc(NC(=O)C4CCCCC4)cc3C(=O)N2C)O1	.	.	30[16.7 µM]	12
C[C@@H]1CCCCO[C@H](CN(C)Cc2ccccc2)[C@H](C)CN([C@H](C)CO)C(=O)c2cc(NC(=O)c3ccccc3)ccc2O1	.	.	12[16.7 µM]	-3
O=C(C[C@@H]1CC[C@H](NC(=O)Cc2ccccn2)[C@H](CO)O1)NCCCN1CCOCC1	.	.	5[16.7 µM]	-18
C[C@H](CO)N1C[C@H](C)[C@H](CN(C)Cc2ccccn2)Oc2ncc(C#Cc3cccc(F)c3)cc2C1=O	.	.	7[16.7 µM]	-11
COc1ccc(CN(C)C[C@@H]2OCCCC[C@@H](C)Oc3ccc(NC(=O)c4ccccc4)cc3C(=O)N([C@H](C)CO)C[C@@H]2C)cc1	.	.	-31[16.7 µM]	17
Cc1noc(C)c1NC(=O)N(C)C[C@@H]1Oc2c(NC(=O)NC(C)C)cccc2C(=O)N([C@H](C)CO)C[C@@H]1C	.	.	5[16.7 µM]	19
C[C@@H]1CCCCO[C@@H](CN(C)C(=O)Nc2ccc(F)cc2)[C@H](C)CN([C@@H](C)CO)C(=O)c2cc(NS(C)(=O)=O)ccc2O1	.	.	17[16.7 µM]	4
Cc1noc(C)c1S(=O)(=O)Nc1ccc2c(c1)C(=O)N([C@@H](C)CO)C[C@H](C)[C@@H](CN(C)Cc1ccccc1)OCCCC[C@@H](C)O2	.	.	-52[16.7 µM]	16
Cc1ccc(S(=O)(=O)Nc2ccc3c(c2)CC(=O)N([C@H](C)CO)C[C@@H](C)[C@@H](CN(C)S(C)(=O)=O)O3)cc1	.	.	8[16.7 µM]	10
COc1ccc(NC(=O)N(C)C[C@H]2Oc3c(NC(=O)c4ccncc4)cccc3C(=O)N([C@H](C)CO)C[C@H]2C)cc1	.	.	-24[16.7 µM]	3
C[C@@H]1CN([C@@H](C)CO)C(=O)c2cc(NC(=O)Nc3cccc4ccccc34)ccc2O[C@H]1CN(C)Cc1ccc(C(F)(F)F)cc1	.	.	34[16.7 µM]	8
CCOC(=O)C1=C(COC(=O)c2sccc2C)NC(=O)NC1C (stereo unspecified)	-1	1	.	-12
O=c1ccn([C@@H]2O[C@H](CNCc3cccc4c3sc3ccccc34)[C@@H](O)[C@H]2O)c(=O)[nH]1	3	3	.	-14
O=C1N(Cc2ccccc2)CC2(Br)COCOC12O (stereo unspecified)	-1	6	.	-13
O=C(CN1C(=O)NC(c2ccccc2)(c2ccccc2)C1=O)NCc1cccs1	-3	-2	.	-18
CC(=O)c1cccc(S(=O)(=O)N2CCC(C(=O)N(C)Cc3ccc(Cl)s3)CC2)c1	-4	-3	.	-1
O=C(COC(=O)c1ccc2ncsc2c1)Nc1ccccc1Br	3	-4	.	-11
COc1ccc(C=NNC(=S)Nc2ccc(F)cc2)cc1OC	5	1	.	-11
CC(C)=CCC/C(C)=C/CNC(=O)C[C@H]1C[C@H](C(=O)N2CCCCC2)[C@@]2(C)c3[nH]c4cc(CCC(=O)N(C)C)ccc4c3CCN2C1=O	-7	-14	.	5
Cc1cc(NC(=O)CN2C(=O)NC3(CCCCCC3)C2=O)ccc1Br	7	8	.	1
CC1CN(C(=O)CNC(=O)Cc2cccc3ccccc23)CC(C)O1 (stereo unspecified)	2	1	.	-2
CCCCn1c(O)c2n(c1=O)Cc1ccccc1N=C2c1ccccc1	4	5	.	-5
CC1(C(=O)NS(=O)(=O)c2ccccc2OC(F)(F)F)CCN1C(=O)c1ccccc1 (stereo unspecified)	-4	8	.	-11
COc1ccccc1Cc1c(-c2ccco2)nc2c(C)cc(Br)cn12	-5	-10	.	0
COc1ccc(CCC(=O)OCC(=O)NCc2ccc3c(c2)OCO3)cc1	-2	5	.	-6
CCCNC(=O)c1cc2c(c(-c3cccc(-c4ccc(F)cc4)c3)n1)[C@@H](CCO)N(S(=O)C(C)(C)C)C2 (stereo partly specified)	1	-4	.	-6
CSc1ncccc1C(=O)OCC(=O)c1[nH]c(C)c(C(C)=O)c1C	3	-2	.	-21
CC1=C(C(=O)N2CCOCC2)CC(CC(=O)NCc2cccs2)C(=O)N1CCC1=CCCCC1 (stereo unspecified)	-1	-5	.	-4
Cc1cc(N(C)C)nc(Nc2ccccc2)n1	-5	-10	.	11
COCCN(C(=O)COC(=O)COc1ccc2ccccc2c1)c1c(N)n(Cc2ccccc2)c(=O)[nH]c1=O	-6	-1	.	-4
C/C=C1\NC(=O)[C@H](C)NC(=O)[C@@H](NC(=O)[C@@H](Cc2ccc(O)cc2)NC(=O)[C@@H](NC(=O)/C(C)=C/C)C(C)C)[C@@H](C)OC(=O)[C@H](CCCCc2ccc(O)cc2)NC(=O)[C@@H](CCC(=O)OC)NC1=O	0	3	.	11
O=C(Nc1ccccc1)Nc1ccccc1	1	-6	.	-10
COc1ccc(CN(C)C(=O)C2CCN(S(=O)(=O)c3cccs3)CC2)cc1F	-2	-3	.	-17
O=C(CSc1nnc(-c2ccccc2)c2ccccc12)NCCN1C(=O)CSC1=O	-1	-1	.	-4
CCOc1ccc(Br)cc1S(=O)(=O)NCC(c1ccc(OC)cc1)N1CCOCC1 (stereo unspecified)	-2	1	.	-9
COc1ccc2c(c1)CO[C@]21O[C@H](CCO)C[C@H](O)[C@H]1O	1	-2	.	-9
CC(C)(C)C1CCNC(=O)CC1 (stereo unspecified)	6	4	.	-13
Cc1noc(C)c1NC(=O)N(C)C[C@H]1OCc2cnnn2CCCC(=O)N([C@@H](C)CO)C[C@H]1C	6	-14	.	-4&2
CCN(C(=O)CSc1nnc(-c2cccc(Cl)c2)n1N)c1c(N)n(Cc2ccccc2)c(=O)[nH]c1=O	-2	5	.	-6
CC(=O)C1=CCC(c2cccc(Cl)c2)N(S(=O)(=O)c2ccc(C)cc2)C1 (stereo unspecified)	1	-7	.	-2
CCOC(=O)c1c(C)[nH]c(C(=O)COC(=O)C2CC2)c1C	-2	1	.	-4

Assay outcomes as filed in PubChem.
